# Screening results deposited in PubChem BioAssay by several laboratories.
# YopH PTP inh: inhibitors of Yersinia enterocolitica YopH tyrosine phosphatase. fluorescence Ex485/Em525. inhibition, %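 (about 10 µM by stock and volumes)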. 0.16% of 140,000 active. AID 898;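 active means inhibition of 50% or more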;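 further: controls were vehicle for no effect and minimum signal wells for full effect; inactives centre near -20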
# Mtb betalactam: beta-lactam sensitization of Mtb H37Rv; M. tuberculosis H37Rv growth with meropenem, percent inhibition; hits of this screen are not shown here; inhibition, % at 25 µM; 0.27% of 330,000 active; AID 434955;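 active means about 74% or more and at least 40 points above the plate without the antibiotic, then above 30% in a dose series; inconclusive means first-round hits that could not be retested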;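 further: growth measured after seven days incubation then overnight dye step; 0% = bacteria only wells and 100% = bacteria with antibiotic; twin plates without the antibiotic show which effects depend on it; some results filed as inactive read as strong as hits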
# Arbovirus anti: blocks arbovirus infection; 0.37% of 200,000 active; arbovirus infection cell-based antiviral screen; inhibition, % at 10 µM;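 active means inhibition from about 30%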;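 further: bluetongue infection of BSR cells; cell survival read as ATP light after 72 h; 0% = infected wells without compound and 100% = uninfected wells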
# RecA splice inh: inhibitors of M. tuberculosis RecA intein splicing; P9WHJ3; cell-free RecA intein splicing, fluorescence; inhibition, %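 (about 9 µM by stock and volumes)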; 0.75% of 290,000 active; in the data active means inhibition above about 30%; inconclusive means no clear call, values can overlap the other calls;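 further: 0% = vehicle wells and 100% = reference inhibitor control wells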
# Target sequence (P9WHJ3 whole entry, looked up, canonical isoform): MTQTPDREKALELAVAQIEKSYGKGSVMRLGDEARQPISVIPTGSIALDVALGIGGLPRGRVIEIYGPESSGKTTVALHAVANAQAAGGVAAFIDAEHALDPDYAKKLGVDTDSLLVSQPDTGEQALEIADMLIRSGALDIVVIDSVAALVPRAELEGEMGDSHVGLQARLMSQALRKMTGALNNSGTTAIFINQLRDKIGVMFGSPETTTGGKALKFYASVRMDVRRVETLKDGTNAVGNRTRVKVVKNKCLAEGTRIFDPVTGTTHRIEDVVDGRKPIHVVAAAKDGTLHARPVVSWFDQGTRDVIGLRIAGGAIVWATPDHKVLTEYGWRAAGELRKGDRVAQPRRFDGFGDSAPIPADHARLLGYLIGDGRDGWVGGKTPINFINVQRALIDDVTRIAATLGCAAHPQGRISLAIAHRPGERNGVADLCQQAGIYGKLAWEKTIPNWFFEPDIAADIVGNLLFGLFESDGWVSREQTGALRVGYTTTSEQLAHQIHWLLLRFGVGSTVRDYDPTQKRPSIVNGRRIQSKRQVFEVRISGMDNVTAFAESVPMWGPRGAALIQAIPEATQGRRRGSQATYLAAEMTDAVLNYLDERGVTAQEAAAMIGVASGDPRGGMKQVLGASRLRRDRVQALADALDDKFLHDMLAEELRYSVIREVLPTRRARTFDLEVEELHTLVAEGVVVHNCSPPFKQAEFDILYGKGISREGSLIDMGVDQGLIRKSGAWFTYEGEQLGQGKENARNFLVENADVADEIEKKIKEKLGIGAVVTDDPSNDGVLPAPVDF
# Mtb H37Rv: M. tuberculosis H37Rv growth inhibitors, H37Rv strain (AID 1626). M. tuberculosis H37Rv growth inhibition; higher % means a stronger effect. one-dose inhibition, % at 10 µM; IC50 in µM for titrated hits. 0.95% of 220,000 active;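 active means confirmed in a dose series; inconclusive means inhibition above 80% but not taken into the dose series; inactive means below 80% or under 30% at every dose of the series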;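 further: bacteria incubated seven days before Alamar blue readout; 0% = bacteria only wells and 100% = bacteria with antibiotic wells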
# Arbovirus anti repeat: further read-out of Arbovirus anti, marked with its call; inhibition, %; measured here: 10K subset replicate screen; many hits read low in the repeat;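 first of two repeat runs on a subset; 0% = infected and 100% = uninfected wells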
# The depositor's hits bear a star; u = inconclusive; x = not tested or not shown; & = joins results of further samples. Only part of the results is shown; rates above refer to the full screens.
SMILES,YopH PTP inh,Mtb betalactam,Arbovirus anti,RecA splice inh,Mtb H37Rv,others
O=C(CN1CCCCCC1)Nc1ccc(S(=O)(=O)N2CCCCC2)cc1,x,-8,x,0.2,x,
O=C(NCc1ccc2c(c1)OCO2)c1c(O)c2cccc3c2n(c1=O)CCC3,-9,-1,7,x,-3%,
CC(C)NCC(O)COC1CCC(C(C)(C)C)CC1 (stereo not given),x,-11,-11,1.2,1%,
CCOc1ccc(NC(=O)CC2C(=O)N(CC)C(=S)N2CCN2CCOCC2)cc1 (stereo not given),x,-3,12,-5.8,-6%,
Cc1cccc(C(=O)NCCCN(C)CCCNC(=O)c2cccc(C)c2)c1,x,0,x,-1.9,x,
CCCCCCCCCCOC(=O)NC1CCS(=O)(=O)C1 (stereo not given),x,16,-6,-3.3,-1%,
N#Cc1nc(COc2ccc(-c3ccccc3)cc2)oc1NCCCN1CCOCC1,12,100,-36,15,77%,
CCCCn1nnc(NC(=O)C(c2ccccc2)c2ccccc2)n1,x,2,6,-4.1,8%,
COc1ccc(C(=O)Nc2ccc3oc(Cc4ccc(Cl)cc4)nc3c2)cc1OC,-32,86,7,0.8,14%,
OC(c1ccccc1)c1nc2ccccc2[nH]1 (stereo not given),x,-1,x,-2.6,x,
CCCN(Cc1ccccc1)C(=S)Nc1ccc(OCC)cc1,x,1,5,-0.9,-2%,
O=C(c1ccccc1)N1CCCC(C(=O)N2CCN(c3ccccc3)CC2)C1 (stereo not given),x,2,x,-2.7,-14%,
COc1ccc(C2C(C#N)=C(N)OC3=C2C(=O)CC(C)(C)C3)c([N+](=O)[O-])c1OC (stereo not given),-25,1,5,-1.9,-12%,
O=c1cc(CSc2nnnn2-c2ccccc2)nc2sccn12,x,2,11,0.1,-7%,
O=C(COC(=O)Cc1ccc(F)cc1)Nc1cc(S(=O)(=O)N2CCOCC2)ccc1N1CCCC1,-6,7,7,0.1,79%,
c1ccc(-n2ncc3c(NCCCN4CCOCC4)ncnc32)cc1,-30,u,5,-2.2,65%,
CCc1ccc(NC(=O)CCCn2nc(CC)n3c(cc4occc43)c2=O)cc1,x,-2,x,1.5,x,
O=C(c1ccc(-c2ccc(Cl)cc2)o1)N1CCN(c2ccc([N+](=O)[O-])cc2Cl)CC1,-44,74,7,7.6,x,
COc1cc(/C=C2/C(=O)N(c3cccc(Br)c3)N=C2C)cc(OC)c1O,x,3,x,87*,x,
COc1ccc(CN(CC(=O)NCCc2ccccc2)C(=O)CCC(=O)Nc2cc(C)ccn2)cc1,x,-2,x,0.6,x,

# Looked up by compound from the list above, three records:
SMILES,YopH PTP inh,Mtb betalactam,Arbovirus anti,RecA splice inh,Mtb H37Rv,others
CCCN(Cc1ccccc1)C(=S)Nc1ccc(OCC)cc1,x,1,5,-0.9,-2%,
O=C(c1ccccc1)N1CCCC(C(=O)N2CCN(c3ccccc3)CC2)C1 (stereo not given),x,2,x,-2.7,-14%,
O=C(c1ccc(-c2ccc(Cl)cc2)o1)N1CCN(c2ccc([N+](=O)[O-])cc2Cl)CC1,-44,74,7,7.6,x,

# Other compounds
SMILES,YopH PTP inh,Mtb betalactam,Arbovirus anti,RecA splice inh,Mtb H37Rv,others
O=C(c1ccccc1)N1CCCC(c2ccc(Cl)cc2)=N1,-36,100,-4,3.4,23%,
O=C(NCCCc1ccccc1)c1ccc(CS(=O)Cc2ccc(Cl)cc2)o1 (stereo not given),x,-14,x,2.9,x,
Cc1nnsc1C(=O)Nc1ccccc1Cl,-40,-1,-1,-0.3,2%,
c1ccc(-c2csc(-n3cnnn3)n2)cc1,-43,-7,-5,-0.6,-12%,
Cn1cc(S(=O)(=O)N2CCCC2)cc1C(=O)NCCc1ccccc1,x,-6,x,0.6,x,
O=C(O)Cc1cc(C(=O)Nc2ccc(Br)cc2)sc1-c1ccccc1,-27,13,25,1.6,-1%,
CC(C)Cn1c(N)c(C(=O)CCl)c(=O)n(C)c1=O,-32,-1,-1,1.3,-15%,
CSc1nnc(C)c(=O)n1COC(=O)COc1ccc(F)cc1,x,-3,24,-2.4,4%,
NC(=O)c1ccc(N=Nc2c(O)[nH]c(=O)[nH]c2=O)cc1,-10,3,-2,-2.6,-2%,
O=C(O)COc1ccc2oc3ccccc3c2c1,x,2,4,-4.2,3%,
CCOC(=O)C1=C(CN2CCSCC2)NC(=O)NC1c1ccc2c(c1)OCO2 (stereo not given),x,-5,-4,0.9,-6%,
CCOC(=O)CSc1nc(C)c2cccc(C)c2n1,x,5,x,2.0,0%,
Cc1cc(/C=C2\SC(=O)NC2=O)c(C)n1-c1ccc(N2CCOCC2)cc1,x,-10,x,-5.4,10%,
Cc1ccc(N(C(=O)c2ccc(CN3CCOCC3)o2)C(C(=O)NCCC(C)C)c2cccs2)c(C)c1 (stereo not given),-6,11,-1,0.1,8%,
Cc1ccc(OCCN2CCN(C)CC2)c([N+](=O)[O-])c1,-19,11,-1,-1.9,-3%,
CCOc1ccccc1Nc1ccc(C(=O)O)cc1NC(C)=O,-30,-2,5,x,-4%,
C=CCN(CC=C)C(=O)C1CCN(S(=O)(=O)c2ccc(-n3cnnn3)cc2)CC1,x,-3,x,2.6,x,
COc1cccc(NC(=S)N2C3CCCC2CC(NC(=O)C2CC2)C3)c1 (stereo not given),x,-4,x,-4.7,x,
Cc1ccc2nc(C)c(C(=O)N/N=C/c3cccs3)cc2c1,-26,-5,-4,-3.1,-11%,
O=C(CSc1nnc(CNC(=O)c2ccc(F)cc2)o1)c1ccccc1,x,-12,x,3.0,x,
NC(=O)c1ccc(-n2nnnc2SCC(=O)Nc2ccc(F)cc2)cc1,x,0,x,0.8,x,
Cc1nn(-c2ccccc2)nc1CNC(=O)C1CCC1,x,-1,x,-1.4,-11%,
COCCN1Cc2cccc(C(=O)Nc3cc(C)cc(C)c3)c2C1=O,6,3,6,-5.2,10%,
O=C(CSc1c2c(nc3ccccc13)CCC2)N1CCCC1,x,-4,16,6.1,5%,
N#Cc1ccc(-c2cccnc2)nc1SCC(N)=O,x,5,x,0.9,1%,
O=C(CCn1c(=S)oc2ccccc21)NC1CCCCCCC1,x,-6,x,1.4,-5%,
COc1ccccc1C(=O)Nc1ccc2c(c1)nc(CN1CCCCC1)n2C,x,2,-3,-5.7,-1%,
CCOC(=O)C1=C(CC)OC(N)=C(C#N)C1c1ccc(F)cc1F (stereo not given),x,0,-1,-3.5,-6%,
O=c1[nH]cnc2scc(-c3ccc(F)cc3)c12,-62,-2,4,0.4,-2%,
O=C(NCCCNC(=O)C(F)(F)C(F)F)C(F)(F)C(F)F,-39,-7,0,x,0%,
CCSc1nnc(CCNS(=O)(=O)c2ccc(C(C)=O)cc2)n1C,x,2,x,0.0,x,
O=C1Nc2ccc([N+](=O)[O-])cc2C1=Nc1cccc(CO)c1,x,x,9,x,3%,
CC(=O)c1cc(OC(=O)c2ccncc2)ccc1OC(=O)c1ccncc1,-1,-4,3,8.2,-2%,
Cc1cccc(C(=O)N/N=C/C(C)Cc2ccc3c(c2)OCO3)c1 (stereo not given),-29,12,-2,-2.5,2%,
Cc1nc(CS(=O)(=O)c2ccccn2)sc1C(=O)NNC(=O)c1c(F)cccc1Cl,x,-5,x,-2.6,-6%,
CCc1cc(C(=O)OC)c(NC(=O)CCC(=O)O)s1,-41,-1,-1,1.5,-6%,
COCCSc1nnc(NC(=O)C2CC(=O)N(CCc3ccc(F)cc3)C2)s1 (stereo not given),x,-4,x,-0.7,x,
NC(=O)c1c(NC(=O)c2ccc(S(=O)(=O)N(CCCl)CCCl)cc2)sc2c1CCCCC2,-31,2,-9,x,-1%,
COC(=O)c1ccccc1NC(=O)CC(=O)Nc1ccccc1C(=O)OC,x,-1,x,0.0,x,
O=C(Nc1nc2c(Br)cc(Br)cc2c(=O)s1)c1ccco1,x,5,x,-0.9,-4%,
CC(C)(C)/C(O)=C/c1nc2cc(Cl)ccc2oc1=O,x,98,x,1.3,25%,
COc1ccc(NC(=O)Nc2ccc(F)cc2F)c(C)c1,-13,-3,5,-0.4,-3%,
CC(NC(=O)c1ccco1)c1ccc2c(c1)OCCO2 (stereo not given),-1,-4,5,-0.6,0%,
O=C(NCc1ccc(S(=O)(=O)Nc2ccccc2Cl)s1)c1ccccc1,x,-4,x,1.3,-8%,
O=C(NC1CCN(Cc2ccccc2)CC1)c1c(F)cccc1F,-25,-2,-1,-3.6,4%,
CN1CCC2(CC1)C1CN(C)CC=C1C(C#N)=C(N)C2(C#N)C#N (stereo not given),-28,-3&-5,5&-3,-9.5,-6%,
CCCC[C@@H]1CN=C(N)N1CCc1cc(C(F)(F)F)cc(C(F)(F)F)c1,x,2,x,5.4,u,
COc1ccc(NC(=O)c2cc(-c3cc(OC)c(OC)c(OC)c3)nc3ccccc23)cc1OC,x,12,x,4.5,x,
CCOC(=O)c1cnn(-c2ccccc2)c1NC(=O)c1cccs1,-22,7,1,1.5,-2%,
COC(=O)c1c(N2C(=O)CCC2=O)sc2c1CCCC2,-24,u,4,-0.5,-8%,Arbovirus anti repeat=1

# (listing goes on)
SMILES,YopH PTP inh,Mtb betalactam,Arbovirus anti,RecA splice inh,Mtb H37Rv,others
OC(c1ccccc1)(c1ccccc1)c1ccncc1,2,-7,0,1.6,3%,
CCCCNc1cc(C)nc(N2CCOCC2)n1,-24,-9,12,-0.4,-4%,
C[C@H](NC(=O)NCc1cccs1)C(=O)O,-39,-14,3,2.1,-6%,
Fc1ccc(CNCc2ccc(Br)cc2)cc1,-12,0,-3,1.7,-3%,
COc1ccc(C(=O)C2CCN(CC(=O)Nc3cc(C)cc(C)c3)CC2)cc1,x,6,x,4.2,x,
CC/C(C)=N/NC(=S)NCc1ccco1,-3,99,1,-2.0,-9%,
N#CCc1c(C#N)c(N)nc(N2CCN(S(=O)(=O)c3ccccc3)CC2)c1C#N,14,-12,-2,2.2,1%,
O=C(CSc1nnc2c3ccccc3c3ccccc3c2n1)Nc1ccccc1F,13,82,-17,5.1,x,
C/C(O)=C(\C#N)c1nc2ccccc2[nH]1,-11,45,-6,-0.2,-4%,
COc1ccc(N(C)S(=O)(=O)c2cccc(C(=O)NCc3ccc4c(c3)OCO4)c2)cc1,x,-14,-14,2.8,14%,

# Filtered by structure: the compounds so far containing a tert-butyl group (two)
SMILES,YopH PTP inh,Mtb betalactam,Arbovirus anti,RecA splice inh,Mtb H37Rv,others
CC(C)NCC(O)COC1CCC(C(C)(C)C)CC1 (stereo not given),x,-11,-11,1.2,1%,
CC(C)(C)/C(O)=C/c1nc2cc(Cl)ccc2oc1=O,x,98,x,1.3,25%,

# (list continues)
SMILES,YopH PTP inh,Mtb betalactam,Arbovirus anti,RecA splice inh,Mtb H37Rv,others
COC(=O)C1=C(C)N(Cc2ccco2)C(=O)N[C@H]1c1cccc(C(F)(F)F)c1,-1,-2,6,x,-4%,
O=C(O)c1ccc(NC(CSCc2ccc(F)cc2)C(=O)O)c([N+](=O)[O-])c1 (stereo not given),-64,11,7,-0.6,-8%,
C#CCOCCOCCOCCNc1nc(N2CCN(C(=O)[C@H]([C@@H](C)CC)n3cc(CCCN=C(N)N)nn3)CC2)nc(N2CCN(C(=O)[C@H](CCCCN)n3cc(CCC(=O)O)nn3)CC2)n1,-7,-6,1,-0.4,-7%,
CC(=O)N1CCN(c2ccccc2NC(=S)NC(=O)c2cc3ccccc3o2)CC1,x,0,x,-0.8,x,
CCCCN(C)C(=O)C1CCN(c2ccc(S(=O)(=O)N3CCOCC3)cc2[N+](=O)[O-])CC1,x,-4,x,1.5,x,
CN1CCN(c2ccccc2NC(=O)c2ccc(N3CCOCC3)c([N+](=O)[O-])c2)CC1,x,-11,x,-1.3,x,
O=C(Oc1coc(CSc2ncccn2)cc1=O)c1cccs1,x,2,-7,5.3,-3%,
CC1CCCCN1C(=O)COC(=O)C1CCN(S(=O)(=O)c2c(Cl)cccc2Cl)CC1 (stereo not given),x,-15,x,1.9,x,
Cc1cc2c3c(c1C)C1(C(=O)N3C(C)(C)CC2C)C(C#N)=C(N)OC2=C1C(=O)CC(C)(C)C2 (stereo not given),-18,-10,7,0.8,1%,
Cc1ccc(OC(=O)c2cccnc2)cc1,x,13,0,0.3,x,
CCCCNC(=O)c1cccc(C(=O)NCCCC)c1,12,-8,-5,-0.5,-7%,
CCOC(=O)Cc1c(C)nc2c(-c3ccc(Cl)cc3)c(C)[nH]n2c1=O,-28,94,-26,-1.2,79%,
CC(C)Oc1cccc(C(=O)NC(=S)Nc2cccc(NC(=O)c3ccccc3Cl)c2)c1,-39,1,-1,-1.3,11%,
CCOc1ccc(S(=O)(=O)N(CC)CC(=O)NCc2cccnc2)cc1,x,3,x,-8.1,x,
Cc1ccc(C(=O)Nc2cccc(C(F)(F)F)c2)cc1NC(=O)c1nccn1C,x,-9,x,-3.1,-8%,
CCOC(=O)CSc1nnc(NC(=O)C2CC(=O)N(c3ccc(F)cc3)C2)s1 (stereo not given),x,u,x,1.7,x,
